ugtP null kill: growth inhibition of S. aureus ugtP deletion strain | 0.54% of 330,000 active | growth inhibition, % (concentration not given with the values) | AID 1259309 | S. aureus RN4220 ugtP deletion, OD600 growth, 16 h; some inactives read as strong as hits;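 active = z-score under -3 and OD600 up to 0.15 on both plates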;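 note: plate controls were untreated wells for no effect and antibiotic for full effect; wells of about 80 µL received 100 nL stock; the first replicate is given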
Autofluor counter: compound fluorescence in toxin protease inhibitor counterscreen; compound autofluorescence counterscreen, microsphere flow cytometry; active compounds read high; 3.1% of 360,000 active; fluorescence intensity (test concentration not listed);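 active = at least 3 SD above the mean of all compounds, about 16000 in these data; inconclusive = too few beads counted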;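 note: 100 nL of 1 mM stock went into each well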
Mtb hypoxia inh: Mtb hypoxia fluorescent reporter inhibition | fluorescence inhibition, % (concentration not given with the values) | AID 1159583 | M. tuberculosis hypoxia-regulated fluorescent reporter, fluorescence | 0.1% of 300,000 active;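 active = 35 to 45% if threefold the growth effect, above 45% if 1.5-fold the growth effect; inactive = the rest, general growth blockers included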;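 note: wells of about 50 µL received 100 nL stock; 0% = vehicle wells and 100% = reference inhibitor wells; whole bacteria with a GFP reporter of the hypoxia response; strong numbers were not always called active; many hits fall short of the cut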
BJeLR lethal: BJeLR cell viability loss. inhibition, % (no concentration beside the values). 0.17% of 300,000 active. BJeLR (HRASV12) viability, CellTiter-Glo ATP luminescence, 48 h; reference of the scale not given here;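 active = replicate mean above 50%; inconclusive = above 50% but judged a plate artefact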;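 note: 50 nL library stock added to about 25 µL; numbers are from one replicate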
PrP 5UTR inh: inhibition of PrP 5' UTR reporter expression; cell-based PrP 5' UTR mRNA reporter, plate reader; inhibition, % (concentration not given with the values); 0.35% of 340,000 active; AID 488862;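 active = every replicate at 50% or more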;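 note: 0 = median of the neutral control wells; tested in H4 reporter cells; numbers are from one replicate; inactives centre near -14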
RN4220 kill: kills Staphylococcus aureus RN4220; S. aureus RN4220 growth, OD600, 16 h; inhibition, % (no concentration beside the values); 0.33% of 330,000 active; AID 1259311;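 active = z-score of -3 or lower and OD600 up to 0.18 on both plates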;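 note: plate controls were untreated cells for no effect and reference antibiotic for full effect; stock transfer was 100 nL into about 80 µL; one replicate is shown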
Mtb hypoxia inh growth: further read-out of Mtb hypoxia inh, marked with its call; growth inhibition, %; measured here: M. tuberculosis growth (absorbance);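 0% = vehicle and 100% = reference antibiotic; read after six days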
The depositor's hits bear a star; ? = inconclusive; / = not tested or not shown.

Order of results: Mtb hypoxia inh growth	RN4220 kill	PrP 5UTR inh	Autofluor counter	ugtP null kill	BJeLR lethal	Mtb hypoxia inh
> Cn1c(-c2ccccc2)c(C=NNC(=O)c2cccnc2)c2ccccc21
  5.6	10.4	/	/	2.0	/	10.3
> O=C1CC(c2ccccc2)CC(O)=C1C=NCc1ccccc1Cl (stereo not drawn)
  10.7	2.1	-69.4	10729	2.1	13.3	4.6
> COc1c(OC2OC(C(=O)O)C(O)C(O)C2O)cc(O)c2c(=O)cc(-c3ccccc3)oc12 (stereo not drawn)
  8.5	3.3	-8.1	3123	-11.0	-2.8	13.1
> NS(=O)(=O)c1ccc(CCNC(=O)c2cc(=O)[nH]c3ccccc23)cc1
  3.6	2.2	-7.2	5051	8.1	0.5	3.5
> COc1ccc2c(c1OC)C(=O)O[C@@H]2[C@H]1c2c(cc3c(c2OC)OCO3)CCN1C
  /	5.7	-25.0	5144	-11.7	-2.3	/
> CCC1(CC)NC(=O)N(CC(=O)OCc2nc3cc(C(=O)OC)ccc3c(=O)[nH]2)C1=O
  0.1	9.9	-31.3	4076	3.2	/	7.2
> CN(C)c1ccc(NC(=S)NC23CC4CC(CC(C4)C2)C3)cc1
  39.6	-2.7	-52.3	4534	-9.8	-11.6	19.5
> O=C1COc2ccc(S(=O)(=O)NCc3ccccc3)cc2N1
  -4.8	4.1	-19.1	3462	0.0	-8.5	0.8
> CC1CCCCC1NC(=O)/C(C#N)=C/c1ccc2c(c1)OCCO2 (stereo not drawn)
  7.9	7.0	/	/	-21.4	-10.2	-1.3
> Cc1cc(Cl)ccc1NNC(=O)c1cccs1
  -5.5	-0.9	-13.8	4031	-1.5	5.0	-2.7
> Cc1nc2ccc3nc(NC(=O)c4ccc5c(c4)OCCO5)sc3c2s1
  0.8	3.5	-36.7	9400	-3.1	2.3	0.1
> CCOC(=O)C1(CCCc2ccccc2)CCN(C(=O)CCOC)CC1
  5.6	6.4	-16.9	1920	2.1	2.4	10.5
> [O-]/C(=C(\C(=S)Nc1cccc2ccccc12)[n+]1ccccc1)c1ccc(Cl)s1
  -2.9	-1.1	-15.1	2418	8.8	-15.6	-8.6
> CC(C)Oc1ccc(N2CC(C(=O)Nc3ccccc3C(=O)NC3CC3)CC2=O)cc1 (stereo not drawn)
  7.9	-0.9	-1.8	?	3.1	2.4	-10.4
> O=C(COc1ccccc1C(=O)NCc1ccncc1)Nc1ccc(Br)cc1
  /	/	-57.2	4351	/	-17.0	/
> Cc1cccc(SCC(=O)Nc2ccc3c(c2)OCCO3)c1
  4.9	-3.8	-51.0	5468	1.8	-1.7	0.9
> CN(Cc1ccccc1)C(=O)c1cccc(NC(=O)Cc2cccc(NC(=O)C3CCN(C(=O)C4CCC4)CC3)c2)c1
  2.0	2.0	-17.3	3804	-4.3	/	-6.0
> COc1ccc(C(C)(C)C)cc1NC(=O)CCNC(=O)c1ccco1
  -6.8	-0.3	-22.5	4678	10.3	-1.6	3.7
> NC(=O)CC(NC(=O)Cc1cccc2ccccc12)c1ccc(N2CCC(N3CCCC3)CC2)c([N+](=O)[O-])c1 (stereo not drawn)
  0.5	19.1	-14.7	2938	12.5	1.1	2.5
> Cc1ccc(Cn2c(N3CCCCCC3)nc3c2c(=O)[nH]c(=O)n3C)cc1
  /	6.9	3.1	3865	-0.5	/	/
> Cc1ccc(S(=O)(=O)N2CC(=O)Nc3ccccc32)c(C)c1NS(C)(=O)=O
  5.6	3.2	-9.7	3410	2.8	7.3	-10.9
> CC1C(=O)OC2C1CC[C@@]1(C)C(=O)C=C[C@@](C)(O)C21 (stereo partly drawn)
  5.8	2.8	/	/	-1.8	/	1.5
> Cc1sc2nc(C)n(N=Cc3ccc(O)cc3)c(=O)c2c1C
  1.4	4.6	/	/	-0.9	/	8.5
> COc1ccc(NC(=O)c2ccccc2N(Cc2ccccc2)S(C)(=O)=O)cc1OC
  13.7	5.0	-13.9	3655	-3.5	1.0	10.0
> NC(=O)C1CCOc2c(F)cc([N+](=O)[O-])cc2C(=O)NC(CO)C(=O)NCC(=O)N1 (stereo not drawn)
  4.5	5.7	/	/	8.1	/	10.1
> CC(C)(C)n1nnnc1C(c1cccs1)N1CCN(Cc2ccc3c(c2)OCO3)CC1 (stereo not drawn)
  2.9	3.6	-11.7	4762	2.4	-2.5	1.6
> Cc1cc2occ(CC(=O)N(C)CC(=O)Nc3ccccc3C(F)(F)F)c2cc1C
  7.2	8.7	/	/	0.3	/	10.9
> CCN(CC)c1ccc(C=c2sc3nnc(-c4ccccc4C)n3c2=O)cc1
  -3.4	-12.7	/	/	2.5	/	-1.3
> Cc1onc(-c2c(F)cccc2Cl)c1C(=O)NCc1cccs1
  -4.9	1.3	-6.2	10099	-5.9	-4.4	3.3
> CC(=O)Oc1ccccc1C(=O)NC(C)CCc1ccccc1 (stereo not drawn)
  5.6	-2.1	-1.3	/	-2.9	-5.7	16.0
> CCOc1cccc(CNCc2cccnc2)c1OCc1ccccc1
  14.0	13.9	-18.4	4409	5.6	-6.9	13.5
> O=C(CC1C(=O)NCCN1Cc1cccc(F)c1)NCCCCCN1CCOCC1 (stereo not drawn)
  7.8	2.6	-12.0	4690	4.2	-8.0	4.1
> O=C1CCCC(O)=C1N=Nc1ccc(Cl)c(Cl)c1
  -1.4	-5.8	-22.9	2209	0.0	-1.0	13.1
> CSc1ccc(S(=O)(=O)N(C)Cc2ccccc2)cc1
  2.5	3.7	-6.6	4880	6.6	6.5	-3.5
> c1cn(CC2(Cn3ccnc3)COC2)cn1
  /	2.9	-5.7	2065	5.1	4.3	/
> CCN(CC)C(=O)Cn1cc(C(=O)C(=O)NCc2cccs2)c2ccccc21
  4.3	1.0	-4.9	4300	-0.5	/	5.3
> O=C(O)c1ccc(CSc2nnc(-c3ccco3)o2)cc1
  /	-3.0	-9.4	6027	4.3	2.3	/
> O=[N+]([O-])c1cc(-c2nc(-c3ccncc3)no2)cc([N+](=O)[O-])c1
  11.1	4.3	-26.8	2025	7.0	-7.2	4.7
> CC1=CC(C)(C)NC(=S)N1c1ccc(Cl)cc1
  0.6	1.4	-5.0	3021	12.8	/	20.5
> COc1cccc(OC)c1C(=O)NNC(=O)c1cccnc1
  -5.0	1.6	-15.6	/	8.9	-13.1	14.4

Laid out differently: entries from further up.
CCN(CC)C(=O)Cn1cc(C(=O)C(=O)NCc2cccs2)c2ccccc21
  Mtb hypoxia inh growth = 4.3; RN4220 kill = 1.0; PrP 5UTR inh = -4.9; Autofluor counter = 4300; ugtP null kill = -0.5; BJeLR lethal = /; Mtb hypoxia inh = 5.3

O=C(O)c1ccc(CSc2nnc(-c3ccco3)o2)cc1
  Mtb hypoxia inh growth = /; RN4220 kill = -3.0; PrP 5UTR inh = -9.4; Autofluor counter = 6027; ugtP null kill = 4.3; BJeLR lethal = 2.3; Mtb hypoxia inh = /

O=[N+]([O-])c1cc(-c2nc(-c3ccncc3)no2)cc([N+](=O)[O-])c1
  Mtb hypoxia inh growth = 11.1; RN4220 kill = 4.3; PrP 5UTR inh = -26.8; Autofluor counter = 2025; ugtP null kill = 7.0; BJeLR lethal = -7.2; Mtb hypoxia inh = 4.7

(cont.)
Order of results: Mtb hypoxia inh growth	RN4220 kill	PrP 5UTR inh	Autofluor counter	ugtP null kill	BJeLR lethal	Mtb hypoxia inh
> Cc1ccc2nc(Nc3ccccc3)c(/C=N/O)c(=O)n2c1
  /	/	6.9	3655	/	2.2	/
> CCOc1ccc(/C=N/NC(=O)c2nnn(-c3nonc3N)c2-c2cccs2)cc1
  /	/	-17.9	4299	/	-17.7	/
> O=S(=O)(c1ccc(F)cc1)N1CN2CCN(C2)C1
  -1.5	-0.9	-6.2	2934	-3.6	-3.0	-2.8
> CN(C)c1ccc(Nc2nc(-c3cccnc3)cs2)cc1
  11.8	-4.2	-78.7	3041	-7.8	-3.5	8.8
> CCCCCC(=O)Nc1c(-c2ccc(OC)cc2)c(=O)c2ccccc2n1C
  0.5	16.5	-24.1	21066*	3.2	4.5	12.8
> CC(=O)OCC1OC(Oc2cc(O)cc3oc(-c4ccc(O)cc4)cc(=O)c23)C(OC2OC(C)C(O)C(O)C2O)C(O)C1O (stereo not drawn)
  1.2	3.3	/	/	2.0	/	7.1
> O=C(COc1ccc(Cl)cc1Cl)Nc1ccc(CN2CCCCC2)cc1
  3.1	7.0	-20.2	4890	-3.5	2.1	11.7
> C/C(=N\NC(=O)c1ccc(N(C)C)cc1)c1ccc(C)cc1C
  /	/	-9.0	2101	/	-11.6	/
> Fc1cccc(CCN2C(=S)NCC2Cc2ccccc2)c1 (stereo not drawn)
  4.9	4.9	/	/	8.3	/	3.5
> Cc1noc(C)c1S(=O)(=O)N1CCCC(C(=O)N2CCc3ccccc3C2)C1 (stereo not drawn)
  /	4.8	-30.9	6289	3.6	-4.8	/
> CN(Cc1ccccc1)C1CCN(Cc2ccccc2[N+](=O)[O-])CC1
  5.0	5.4	-20.1	4281	11.1	4.0	13.9
> O=C(c1ccc(-c2nc3ccccc3s2)s1)N1CCOCC1
  -0.5	6.7	/	/	-2.4	19.2	7.9
> COC(OC)c1ccc(C#N)c(SCc2ccccc2)n1
  4.5	-1.8	-6.1	4491	0.1	-13.8	-8.2
> COc1cc(OC)c(-c2c3cc(O)c(=O)cc-3oc3cc(O)c(O)cc23)cc1OC
  /	5.3	-32.7	7971	-26.1	/	/
> CC(C)c1ccc2c(c1)c(SC(C)(C)C)c(CC(C)(C)C(=O)O)n2Cc1ccc(Cl)cc1
  4.5	100.2*	-22.7	5255	100.5*	6.8	2.9
> Cc1c(NC(=O)NCc2ccccc2)c(=O)n(-c2ccccc2)n1C
  8.2	-0.8	1.6	22336*	-1.1	-4.3	-4.5
> Cc1nc2ccc(C(=O)N3CCSCC3)cc2s1
  /	1.5	10.4	4013	7.8	-6.2	/
> C=C1CCN([C@@H](CC(C)C)C(=O)NCc2ccc(Cl)c(Cl)c2)S(=O)(=O)c2ccccc21
  /	/	-17.1	4200	/	8.9	/
> O=C(NC(=S)NC1CCS(=O)(=O)C1)c1cccs1 (stereo not drawn)
  15.7	6.1	-26.0	2100	-2.6	-3.3	-0.5
> Cc1cc(Cl)ccc1OCC(=O)N1CC(C)CC(C)C1 (stereo not drawn)
  10.7	5.6	-7.0	3417	-8.8	3.1	15.4
> CSc1ccccc1OCc1cc(C(=O)N2CCN(c3ccccc3)CC2C)no1 (stereo not drawn)
  9.2	2.3	-54.9	5314	-11.6	2.4	4.4
> COc1ccc(CCC(=O)NC(C)c2ccccc2)cc1OC (stereo not drawn)
  -0.3	-0.5	-3.4	3642	-2.9	-3.8	-14.5
> O=C(NN=Cc1ccc2ncccc2c1)c1cc(-c2cccs2)nc2ccccc12
  -0.3	83.1	/	/	61.8	/	4.4
> O=C1CCN(C(=O)CSc2ccc(Cl)cc2)N1
  2.3	1.7	-1.6	2443	-3.0	4.7	4.2
> C=C(Cl)COC(=O)C1C2C=CC(C2)C1C(=O)O (stereo not drawn)
  /	0.1	-15.8	4002	-2.2	-3.1	/
> Cc1ccc(C(=O)OCC(=O)NC2CCCC2)cc1C
  0.8	1.3	-24.2	4021	12.8	-0.5	11.2
> Clc1ccc(OCCCCSc2ncccn2)cc1
  11.0	26.5	-19.5	4096	38.8	-7.9	7.6
